Screening results deposited in PubChem by Broad Institute.
Ecoli rRNA inh – inhibits bacterial ribosomal RNA function over humanized ribosomes; E. coli WT GFP vs humanized-ribosome RFP mutants, fluorescence, 24 h; stronger effect = lower value; DMSO median 0, no signal -100; GFP signal change (wild-type ribosome), % (concentration not given with the values); actives 1.6% (n = 350,000);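 active = significant combined selectivity score with lowered wild-type GFP, culture density cut under 30%, mutant RFP and density less affected; inactive = any of these conditions unmet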; note: one replicate is shown; some compounds called inactive have numbers as strong as hits
Ecoli rRNA inh OD600 – further read-out of Ecoli rRNA inh, marked with its call; OD600 change, %; measured here: OD600 growth;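 optical density of the mix in the first replicate; 0 = DMSO median and -100 = no signal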
Ecoli rRNA inh RFP – second read-out of Ecoli rRNA inh, no call of its own (marks repeat the call); RFP signal change, %; measured here: RFP humanized mutant strains;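 first replicate; 0 = DMSO median and -100 = no signal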
* marks the source's active call; other numbers are inactive results. Some of the compounds tested. The share of hits here may be higher or lower than overall.

Start of the data: the first 2 compounds, ahead of the listing:
SMILES | Ecoli rRNA inh | Ecoli rRNA inh OD600 | Ecoli rRNA inh RFP
CO[C@@H]1CN(C)C(=O)c2cc(NS(C)(=O)=O)ccc2OC[C@H](C)N(S(C)(=O)=O)C[C@@H]1C | 3 | 7 | -1.7
CCc1cccc(CC)c1NC(=O)C(CC)Sc1nc2ccsc2c(=O)n1CCC(=O)O (stereo unspecified) | 3 | 7 | 1.0

Main list, from the first entry:
SMILES | Ecoli rRNA inh | Ecoli rRNA inh OD600 | Ecoli rRNA inh RFP
CO[C@@H]1CN(C)C(=O)c2cc(NS(C)(=O)=O)ccc2OC[C@H](C)N(S(C)(=O)=O)C[C@@H]1C | 3 | 7 | -1.7
CCc1cccc(CC)c1NC(=O)C(CC)Sc1nc2ccsc2c(=O)n1CCC(=O)O (stereo unspecified) | 3 | 7 | 1.0
C[C@H](CO)N1C[C@H](C)[C@H](CN(C)C(=O)CN2CCOCC2)Oc2ncc(C3=CCCC3)cc2C1=O | 2 | 5 | -2.9
O=C(N[C@@H]1CC[C@H](CC(=O)N2CCCCC2)O[C@@H]1CO)c1cccc(F)c1 | 2 | 1 | -2.5
C/C=C/c1ccc(C2[C@@H]3CN(S(=O)(=O)c4ccccc4)C[C@H]2N3)cc1 (stereo partly specified) | 6 | -12 | 4.0
CN(C)C(=O)C[C@@H]1CC[C@H](NC(=O)C2CCC2)[C@@H](CO)O1 | 4 | -4 | 0.3
C[C@@H]1CN([C@@H](C)CO)C(=O)c2cc(C3=CCCC3)cnc2O[C@@H]1CN(C)C(=O)C1CCOCC1 | 3 | 3 | 0.8
C[C@@H]1CN([C@@H](C)CO)S(=O)(=O)c2ccc(-c3ccncc3)cc2O[C@@H]1CN(C)C(=O)C1CC1 | 1 | -6 | -0.6
CCC(=O)Nc1ccc2c(c1)C(=O)N(C)[C@@H]1CC[C@H](CC(=O)N[C@H](C)c3ccccc3)O[C@H]1CO2 | -2 | 7 | 0.9
COc1ccc(S(=O)(=O)Nc2ccc3c(c2)C(=O)N([C@@H](C)CO)C[C@@H](C)[C@H](CN(C)Cc2ccc4c(c2)OCO4)OCCCC[C@H](C)O3)cc1 | 4 | -11 | 1.8
C/C=C/c1cnc2c(c1)C(=O)N([C@@H](C)CO)C[C@@H](C)[C@H](CN(C)Cc1ccc(F)cc1)O2 | 2 | 0 | -1.4
COC(=O)C[C@H]1C[C@@H]2c3cc(NC(=O)Nc4ccc(C(F)(F)F)cc4)ccc3O[C@@H]2[C@@H](CO)O1 | -60 | -79 | -18
COc1cccc(-c2ccc3c(c2)O[C@@H](CN(C)Cc2cccnc2)[C@@H](C)CN([C@@H](C)CO)S3(=O)=O)c1 | -9 | -15 | 3.5
CC(C)NC(=O)Nc1ccc2c(c1)C(=O)N([C@@H](C)CO)C[C@H](C)[C@@H](CN(C)S(=O)(=O)c1ccc(Cl)cc1)OCCCC[C@H](C)O2 | -3 | 2 | 4.7
C[C@@H]1CN([C@@H](C)CO)C(=O)c2cc(NS(=O)(=O)c3cccs3)ccc2O[C@H]1CN(C)Cc1ccncc1 | -2 | 2 | -0.3
C[C@@H]1CCCCO[C@H](CN(C)C(=O)Cc2ccccc2)[C@@H](C)CN([C@@H](C)CO)C(=O)c2cc(NC(=O)Nc3ccccc3)ccc2O1 | 0 | -7 | -4.5
C[C@H](O)C#Cc1ccc2c(c1)O[C@H](CN(C)C(=O)CC1CC1)[C@H](C)CN([C@H](C)CO)S2(=O)=O | 0 | 0 | -3.0
Cc1ccc(-c2nc3c4ccccc4ccn3c2Cc2ccccc2C(F)(F)F)cc1 | 17 | 22 | 51
COC(=O)[C@@H]1[C@@H](CO)[C@@H]2Cn3c(ccc(-c4cccc(C(=O)N(C)C)c4)c3=O)[C@@H]2N1CC1CC1 | 2 | 3 | -1.6
C/C=C/c1ccc([C@@H]2[C@H](CO)N(CC3CC3)C23CN(C(=O)c2ccc4c(c2)OCO4)C3)cc1 | -9 | -14 | 2.3
C[C@@H]1CN([C@@H](C)CO)C(=O)c2cccc(NC(=O)c3cnccn3)c2O[C@@H]1CN(C)Cc1ccc(C(=O)Nc2ccccc2N)cc1 | -3 | -2 | 0.6
CN(C)C(=O)C[C@H]1CC[C@@H]2[C@H](COC[C@H](O)CN2CC2CCCCC2)O1 | 3 | -6 | 3.5
C[C@H](CO)N1C[C@H](C)[C@H](CN(C)CC2CC2)Oc2cc(C#Cc3ccc(F)cc3)ccc2S1(=O)=O | 1 | -17 | 17
COc1ccccc1-c1cnc2c(c1)C(=O)N([C@H](C)CO)C[C@H](C)[C@@H](CN(C)C(=O)CN(C)C)O2 | 7 | 14 | 0.7
COc1ccccc1NC(=O)N1CCCCN2[C@@H](CO)[C@H](c3ccc(C#Cc4ccccc4)cc3)[C@@H]2C1 | -30* | -16* | 5.0*

4 compounds picked at random from those above, as already listed:
SMILES | Ecoli rRNA inh | Ecoli rRNA inh OD600 | Ecoli rRNA inh RFP
C[C@@H]1CCCCO[C@H](CN(C)C(=O)Cc2ccccc2)[C@@H](C)CN([C@@H](C)CO)C(=O)c2cc(NC(=O)Nc3ccccc3)ccc2O1 | 0 | -7 | -4.5
C/C=C/c1ccc(C2[C@@H]3CN(S(=O)(=O)c4ccccc4)C[C@H]2N3)cc1 (stereo partly specified) | 6 | -12 | 4.0
C/C=C/c1ccc([C@@H]2[C@H](CO)N(CC3CC3)C23CN(C(=O)c2ccc4c(c2)OCO4)C3)cc1 | -9 | -14 | 2.3
CC(C)NC(=O)Nc1ccc2c(c1)C(=O)N([C@@H](C)CO)C[C@H](C)[C@@H](CN(C)S(=O)(=O)c1ccc(Cl)cc1)OCCCC[C@H](C)O2 | -3 | 2 | 4.7

Full records, looked up by structure.
Profile of C[C@@H]1CN([C@@H](C)CO)S(=O)(=O)c2ccc(-c3ccncc3)cc2O[C@@H]1CN(C)C(=O)C1CC1 → Ecoli rRNA inh: 1; Ecoli rRNA inh OD600: -6; Ecoli rRNA inh RFP: -0.6
Profile of COc1ccccc1NC(=O)N1CCCCN2[C@@H](CO)[C@H](c3ccc(C#Cc4ccccc4)cc3)[C@@H]2C1 → Ecoli rRNA inh: -30*; Ecoli rRNA inh OD600: -16*; Ecoli rRNA inh RFP: 5.0*

Further compounds follow:
SMILES | Ecoli rRNA inh | Ecoli rRNA inh OD600 | Ecoli rRNA inh RFP
C[C@H](CO)N1C[C@H](C)[C@H](CN(C)Cc2ccc3c(c2)OCO3)OCCCC[C@H](C)Oc2ccc(N(C)C)cc2C1=O | -1 | 0 | -1.1
COc1ccc(S(=O)(=O)Nc2cccc3c2O[C@H](CN(C)C(=O)Nc2cccc4ccccc24)[C@H](C)CN([C@H](C)CO)C3=O)cc1 | -2 | -7 | -1.4
CC=Cc1ccc2n(c1=O)C[C@@H]1[C@@H](CO)[C@H](C(=O)Nc3ccc(-c4ccccc4)cc3)N(CCC)[C@H]21 (mixture of isomers) | 0 | -10 | 18
C[C@@H]1CN([C@H](C)CO)C(=O)c2cccc(NS(=O)(=O)c3cccs3)c2O[C@@H]1CN(C)Cc1ccc(C(=O)Nc2ccccc2N)cc1 | 4 | 3 | -1.6
C[C@@H](NC(=O)c1ncn2c1c(=O)[nH]c1ccc(Br)cc12)c1ccccc1 | 3 | 5 | -0.6
C=CCN=C1NC(c2ccc(C(F)(F)F)cc2)C(C(=O)OC)=C(C)N1C (stereo unspecified) | 20 | 9 | 1.5
C[C@@H]1CN([C@@H](C)CO)C(=O)Cc2cc(NC(=O)Cc3ccccc3)ccc2O[C@@H]1CN(C)C(=O)Nc1cccc2ccccc12 | -1 | -3 | 4.7
CC1=C(C(=O)N(C)C)CC(CC(=O)NC2CCCCC2)C(=O)N1CCCN1CCCC1=O (stereo unspecified) | 1 | 3 | -3.1
COCC(=O)N(C)C[C@@H]1Oc2cc(C#CC(C)(C)O)ccc2S(=O)(=O)N([C@@H](C)CO)C[C@H]1C | 4 | 11 | -1.4
C[C@H](CO)N1C[C@H](C)[C@H](CN(C)C(=O)Nc2ccc(C(F)(F)F)cc2)Oc2c(NC(=O)C3CCCCC3)cccc2C1=O | -2 | -2 | 0.2
C[C@H]1CN([C@@H](C)CO)C(=O)c2cccc(NS(C)(=O)=O)c2O[C@@H]1CN(C)S(=O)(=O)c1cccs1 | -8 | -17 | -0.6
C[C@@H]1CN([C@H](C)CO)C(=O)Cc2cc(NC(=O)NC3CCCCC3)ccc2O[C@@H]1CN(C)Cc1ccc(C(=O)O)cc1 | 4 | 2 | -3.4
CC(=O)N1[C@@H]2c3ccc(-c4ccccc4)c(=O)n3C[C@H]1[C@H](CO)[C@H]2C(=O)NCC1CC1 | -1 | -1 | -1.9
OC[C@H]1[C@@H](c2ccc(/C=C/c3ccccc3)cc2)[C@H]2CN(Cc3ccncc3)CCCCN21 | -58 | -76 | -6.7
C[C@H](CO)N1C[C@H](C)[C@H](CN(C)Cc2cncnc2)Oc2cc(-c3ccccc3)ccc2S1(=O)=O | -8 | -11 | 3.1
C[C@@H]1CN([C@@H](C)CO)S(=O)(=O)c2ccc(C3=CCCCC3)cc2O[C@@H]1CN(C)Cc1ccccc1F | -2 | -6 | 1.6
Cc1noc(C)c1NC(=O)Nc1ccc2c(c1)C(=O)N([C@H](C)CO)C[C@@H](C)[C@@H](CN(C)S(=O)(=O)c1ccc(F)cc1)OCCCC[C@@H](C)O2 | 1 | -9 | 3.5
CN1C(=O)c2cc(NC(=O)C3CC3)ccc2OC[C@@H]2O[C@H](CC(=O)O)CC[C@H]21 | 4 | 6 | -1.1
CC(=O)N1CCN(c2ccc(N3CCN(C(C)=O)[C@@H](C)C3)c(C)c2)[C@H](C)C1 | -12 | -11 | 2.5
COc1ccc(S(=O)(=O)N(C)C[C@H]2OCCCC[C@@H](C)Oc3ccc(NS(C)(=O)=O)cc3C(=O)N([C@@H](C)CO)C[C@H]2C)cc1 | -6 | -13 | -0.5
O=C(C[C@@H]1C=C[C@@H](NC(=O)NC2CCCC2)[C@H](CO)O1)NCc1ccc(F)cc1 | 5 | 15 | 1.1
C[C@H]1CN([C@@H](C)CO)S(=O)(=O)c2ccc(-c3ccccc3)cc2O[C@@H]1CN(C)C(=O)C1CC1 | -4 | -14 | 2.7
O=C(C[C@H]1CC[C@H]2[C@@H](COC[C@H](O)CN2Cc2ccc3c(c2)OCO3)O1)N1CCCCC1 | -2 | -8 | -1.6
O=C(Cc1cccnc1)N1[C@@H](CO)[C@@H](c2ccccc2)[C@@H]1CNCC1CCC1 | -2 | 0 | 0.6
CS(=O)(=O)Nc1ccc2c(c1)[C@@H]1C[C@@H](CC(=O)NCc3cc(F)ccc3F)O[C@@H](CO)[C@@H]1O2 | 0 | 0 | 0.0
SMILES | Ecoli rRNA inh | Ecoli rRNA inh OD600 | Ecoli rRNA inh RFP
C[C@H](CO)N1C[C@H](C)[C@H](CN(C)Cc2ccc(Oc3ccccc3)cc2)Oc2ccc(NC(=O)Nc3ccc(C(F)(F)F)cc3)cc2C1=O | 5 | -6 | 2.9
N#CC1(NC(=O)CSc2nnc(C3CC3)n2N)CCCCC1 | 14 | 7 | 0.8
O=C(Cc1cccnc1)N1CC(=O)N2[C@H](CO)[C@H](c3ccc(/C=C/c4ccccc4)cc3)[C@@H]2C1 | -2 | 5 | -2.0
O=C(N[C@@H](Cc1cccnc1)C(=O)N1CCC[C@H]1C(=O)NC1CCCC1)c1ccccc1 | -7 | -4 | 4.2
CCNC(=O)[C@H]1[C@H](CO)[C@H]2Cn3c(ccc(C4=CCCC4)c3=O)[C@@H]1N2S(=O)(=O)c1cn(C)cn1 | 3 | 3 | -2.3
O=C(Nc1cccc2ccccc12)OC[C@@H]1CSCCS(=O)(=O)N1 | -8 | -7 | 1.0
O=C(C=Cc1ccc(OCc2ccccc2)cc1)c1c(F)cccc1F | 9 | -3 | 0.4
CO[C@@H]1CN(C)C(=O)c2cc(NC(C)=O)ccc2OC[C@@H](C)N(C(=O)c2ccc(F)cc2)C[C@@H]1C | -1 | -2 | -1.6
C[C@H](CO)N1C[C@H](C)[C@@H](CN(C)C(=O)C2CCCCC2)Oc2cc(-c3ccc(C(=O)N(C)C)cc3)ccc2S1(=O)=O | -5 | -11 | 2.3
O=C(c1cnccn1)N1CC(=O)N2[C@H](CO)[C@H](c3ccc(C#CC4CC4)cc3)[C@H]2C1 | 2 | 18 | -1.7
C[C@H](CO)N1C[C@H](C)[C@H](CN(C)C(=O)CN(C)C)Oc2ncc(C#C[C@@H](C)O)cc2C1=O | 9 | 4 | 0.2
COc1ccc(C(NC(=O)C2CCN(CCOc3ccc(Cl)cc3Cl)CC2)c2ccccn2)cc1 (stereo unspecified) | -64 | -78 | -17
CCCN1[C@@H]2Cn3c(ccc(-c4ccccc4)c3=O)[C@H]1[C@@H](C(=O)NCC)[C@@H]2CO | 2 | 0 | -0.7
CNC[C@H]1Oc2ccc(NC(=O)NC3CCCCC3)cc2C(=O)N([C@H](C)CO)C[C@H]1C | 6 | 14 | -1.3
Cc1cc(C)c(NS(=O)(=O)c2ccccc2)c(C)n1 | 5 | -2 | 0.5
CCC(=O)N1[C@H](C#N)[C@@H](c2ccccc2-c2cccc(C)c2)[C@H]1CO | -2 | 0 | 2.5
O=S(=O)(N[C@@H]1CC[C@H](CCn2cc(-c3cccc(F)c3)nn2)O[C@H]1CO)c1ccc(F)cc1 | -7 | -18 | 2.5
CN(C)CC(=O)N1[C@@H](CO)[C@@H](c2ccccc2)C12CN(Cc1cccnc1)C2 | 2 | 13 | -0.5
